UCH37 DUB inh = inhibitors of human deubiquitinating enzyme UCH37. inhibition, % (test concentration not listed). actives 0.33% (n = 330,000). purified proteasome/UCH37, Ub-AMC cleavage fluorescence;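 active = mean of two replicates above 20%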;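 also: 0% = compound-free wells with enzyme and 100% = wells lacking proteasome; stock transfer was 100 nL into about 20 µL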
Target sequence (Q9Y5K5 whole entry, looked up): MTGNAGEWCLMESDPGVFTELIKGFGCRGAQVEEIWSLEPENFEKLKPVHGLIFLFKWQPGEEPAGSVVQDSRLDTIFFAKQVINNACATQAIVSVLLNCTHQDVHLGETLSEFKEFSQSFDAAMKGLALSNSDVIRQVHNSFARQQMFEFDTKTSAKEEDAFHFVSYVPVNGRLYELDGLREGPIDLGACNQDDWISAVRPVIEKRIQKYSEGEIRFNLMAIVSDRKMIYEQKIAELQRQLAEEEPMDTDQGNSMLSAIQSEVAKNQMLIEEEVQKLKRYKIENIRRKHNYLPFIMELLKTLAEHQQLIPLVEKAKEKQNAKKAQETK
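system = Proteasome-associated human UCH37 deubiquitinase | amount = 0.15 nM proteasome as dispensed | medium = pH 7.4 Tris-HCl (50 mM) with ovalbumin, ATP-MgCl2, DTT | incubation = 30 min preincubation with enzyme, 25 min cleavage at room temperature | detection = AMC fluorescence 355/460 nm | read-out basis = percent inhibition | controls = no-proteasome and no-compound wells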
HNF4A DNA FP = change in binding of human HNF4 alpha to DNA; HNF4a-FITC DNA binding, fluorescence polarization, 1 h; activity change, % at 10 µM; actives 0.3% (n = 360,000); in the data active = activity change above about 30%, passing the limit was not always enough;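 also: controls were the assay level and a saturating level of protein; the project sought stronger binding though the title names inhibitors; some compounds called inactive have numbers as strong as hits; positive values seem to mean higher polarization but the record does not say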
Target sequence (P41235 whole entry, looked up): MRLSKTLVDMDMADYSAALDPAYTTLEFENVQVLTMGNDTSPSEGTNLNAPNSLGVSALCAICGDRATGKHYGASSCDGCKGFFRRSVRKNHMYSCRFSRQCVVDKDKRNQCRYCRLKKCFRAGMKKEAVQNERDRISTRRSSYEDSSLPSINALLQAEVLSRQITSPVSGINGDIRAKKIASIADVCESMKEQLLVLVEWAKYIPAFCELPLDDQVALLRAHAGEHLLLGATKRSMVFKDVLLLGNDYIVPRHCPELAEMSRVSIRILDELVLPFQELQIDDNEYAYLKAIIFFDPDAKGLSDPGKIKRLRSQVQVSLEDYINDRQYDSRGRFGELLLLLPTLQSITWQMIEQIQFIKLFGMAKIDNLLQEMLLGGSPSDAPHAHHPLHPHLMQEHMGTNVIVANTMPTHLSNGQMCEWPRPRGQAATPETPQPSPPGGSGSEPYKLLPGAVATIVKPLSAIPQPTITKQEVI
AF4-AF9 inh = blocks AF4 peptide binding to human AF9 | actives 0.47% (n = 350,000) | inhibition, % at 10 µM | AlphaScreen, biotin-AF4 peptide binding to FLAG-AF9 | AID 651704 | P42568;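 active = every replicate reaching a set inhibition limit, whatever the replicate mean, cut at about 25% in these data; inconclusive = mean inhibition reaches that limit but some replicates miss it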;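 also: 0% = plate neutral control median and 100% = total signal loss; the record names both 10 and 1 µM as test concentration; the first replicate is given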
E coli growth = E. coli growth inhibition; Escherichia coli growth, OD600, 23 h; hits give low values; OD600 absorbance (no concentration beside the values); actives 0.21% (n = 330,000); AID 1053175;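 active = OD600 absorbance below the run mean of sample wells minus 3.6 SD, in any replicate, cut at about 0.56 in these data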;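 also: stock transfer was 300 nL into about 60 µL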
Vif A3G = HIV-1 Vif–A3G interaction blockers – biochemical, TR-FRET, GST-Vif 1-94, biotin-A3G peptide, dose response retest, primary screen (AID 1117319). actives 0.57% (n = 260,000). TR-FRET GST-Vif / biotin-A3G peptide binding; higher % means a stronger effect; test concentration not given here; strong numbers were not always called active. one-dose inhibition, %; IC50 in µM for titrated hits;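 active = above the screen mean plus three standard deviations and confirmed in dose response; inconclusive = results disagree or hit not tested in dose response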;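 also: Vif residues 1-94 fused to GST binding biotinylated APOBEC3G peptide 110-148; 0% = full assay without inhibitor and 100% = GST in place of GST-Vif; retest series ran down from 100 µM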
RanGTP-Imp inh = disruptors of Ran-importin-beta complex formation – biochemical, FRET, CFP-Ran, YFP-importin-beta, homogeneous, primary screen; AID 2216; cell-free CFP-Ran/YFP-importin-beta FRET ratio; inhibition, % (no concentration beside the values); actives 1.1% (n = 300,000);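 active = most replicates above 15%; inconclusive = exactly half above 15%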;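 also: 0% = DMSO wells and 100% = Ran loaded with GDP instead of GTP; wells of about 40 µL received 100 nL stock; the first replicate is given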
FGF22 binding = binders of recombinant human FGF22 by thermal shift; Q9HCT0; SYPRO orange fluorescence; percent of sucrose octasulfate shift, DMSO zero; calls only at 9.99 µM; actives 1.5% (n = 340,000); AID 651658;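 active = melting point raised past a set limit in the mean and every replicate; inconclusive = no clear call; three in four hits are not shown here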
Target sequence (Q9HCT0 whole entry, looked up): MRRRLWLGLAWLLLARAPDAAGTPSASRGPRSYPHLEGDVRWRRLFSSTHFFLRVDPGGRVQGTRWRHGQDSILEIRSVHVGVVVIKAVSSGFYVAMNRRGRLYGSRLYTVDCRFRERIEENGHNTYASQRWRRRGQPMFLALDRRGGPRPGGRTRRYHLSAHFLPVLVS
The depositor's hits bear a star; i = inactive; ? = inconclusive; nt = no result given; + = active, no number; & = joins results of further samples. Some of the compounds tested (hit frequency here may not be typical).

SMILES	UCH37 DUB inh	HNF4A DNA FP	AF4-AF9 inh	E coli growth	Vif A3G	RanGTP-Imp inh	FGF22 binding
COc1ccc(OCCNc2cc(Cl)ccc2[N+](=O)[O-])cc1	3.1	51*	-2.3	0.69	-5%	4.1	i
O=C(Nc1ccc(Cl)cc1)NC1CCCCNC1=O (stereo not drawn)	2.4	-1.4	-4.2	0.64	-7%	0.5	i
C=CCn1c(C)cc(C(=O)COc2nncc3ccccc23)c1C	4.1	3.1	nt	0.71	26%	-1.9	nt
CN(C)c1ccc(NC(=O)c2cccc(N3C(=O)CCC3=O)c2)cc1	0.0	-3.6	nt	0.67	7%	7.4	nt
Cc1ccc(C(O)P(=O)(OCc2ccccc2)c2ccc(N(C)C)cc2)cc1 (stereo not drawn)	3.5	0.6	-4.4	0.6	-6%	-1.1	i
COC(=O)c1ccc(NC(=O)CCNS(=O)(=O)c2cccc3nonc23)cc1	5.8	-1.5	nt	0.74	12%	2.1	nt
O=[N+]([O-])c1ccc(CN2CC(N3CC=CC3)CS2(=O)=O)cc1 (stereo not drawn)	nt	-3.4	1.3	nt	nt	nt	i
O=[N+]([O-])c1cc2c(cc1[N+](=O)[O-])OCCOCCOCCOCCO2	3.4	-0.3	-4.4	0.7	-5%	-0.5	i
CCC(C)(C)n1nnnc1C(c1ccccc1F)N1CCC(C(N)=O)CC1 (stereo not drawn)	0.5	1.0	nt	0.69	4%	2.3	nt
CN(NC(=O)c1ccccc1F)c1nc(C(F)(F)F)nc2ccccc12	3.9	-2.4	-0.3	0.68	3%	?	i
COc1ccc(OC)c(S(=O)(=O)N2CCN(C)CC2c2ccccc2)c1 (stereo not drawn)	-0.2	1.0	-28	0.66	-3%	nt	i
CN(C)c1ccc(C(=S)Nc2ccccc2)cc1	3.6	0.6	1.3	0.66	-10%	-2.2	i
O=C(NCCCn1ccnc1)/C(=C/c1ccco1)NC(=O)c1ccccc1	4.7	-7.1	nt	0.73	6%	-0.1	nt
COCCn1c(SCC(=O)Nc2ccc3[nH]c(=O)[nH]c3c2)nc2ccccc21	-0.9	-0.4	-6.8	0.68	-3%	nt	i
COc1ccc(CCNC(=O)C(=O)c2cn(CC(=O)N3CCCC3)c3ccccc23)cc1	nt	0.0	-0.7	nt	-8%	nt	i
CCc1cc(-c2nnn(CCC3COCCO3)c2CC)ccc1-c1cn(Cc2ccc3ccccc3c2)nn1 (stereo not drawn)	nt	-0.5	-5.6	nt	-3%	nt	i
Cc1ccc2c(c1)c1nnc(SCC(=O)Nc3cccc(Cl)c3C)nc1n2CC(=O)O	7.3	3.4	2.6	0.71	2%	?	+
Cc1sc(-c2cccnc2)nc1OC(=O)C1CC1	-10	-1.6	-8.1	0.67	3%	-0.7	i
CN(C)S(=O)(=O)N1CCN(c2ccc([N+](=O)[O-])c(NC3CC3)c2)CC1	9.9	-2.1	11	0.67	-5%	6.1	nt
Cc1cc(C(=O)CSc2nncs2)c(C)n1Cc1ccco1	2.6	-0.8	5.3	0.68	13%	6.4	i
Cc1cc(SCC(=O)N/N=C/c2ccc(O)c(O)c2)c(C)cc1Br	nt	-2.0	nt	nt	8%	-3.0	nt
COCc1ccc(CN2CCCCC2C(=O)Nc2ccc(Oc3ccccc3)nc2)o1 (stereo not drawn)	3.9	4.4	3.5	0.73	nt	3.6	i
O=C(NCC1CCCO1)c1ccc(COCC(F)(F)C(F)F)cc1 (stereo not drawn)	4.3	2.8	1.3	0.7	2%	1.2	i
Cc1cc(NC(=O)CCC(=O)N(Cc2ccco2)C2(C(=O)NC3CCCCC3)CCCCC2)no1	-1.9	-0.9	0.1	0.71	nt	-0.1	i
Cc1ccc(C(=O)OCC(=O)N2CCCCCC2)cc1S(=O)(=O)N1CCOCC1	0.8	-0.4	-0.8	0.7	-2%	nt	i
Cc1ccc(CNC(=O)CCS(=O)(=O)c2ccc3c(c2)NC(=O)CS3)cc1	0.0	6.3	0.8	0.68	0%	6.7	i
COC(=O)c1ccc2nc(NC(=O)C(C)C)sc2c1	3.7	2.1	-1.0	0.66	0%	30*	nt
CCOc1cc(/C=N/O)ccc1OCC(=O)Nc1cccc(C)c1	nt	2.6	-2.6	nt	3%	-1.0	i
O[C@H]1CN(Cc2cccs2)[C@@H](c2ccccc2)C[C@@H]1n1cc(C2CC2)nn1	nt	-0.4	-0.5	nt	12%	nt	i
CCN(Cc1ccccc1)C(=O)c1ccc(CNS(=O)(=O)c2ccc(C)cc2)cc1	1.1	2.1	nt	0.69	-7%	-2.6	nt
CCN(CC)CCn1c(=S)[nH]c2ccc(Cl)cc2c1=O	3.8	-3.1	nt	0.64	10%	-4.7	nt
N#Cc1nc(COc2ccccc2Cl)oc1NCc1ccco1	2.3	-2.2	nt	0.74	5%	3.3	nt
Cc1cc(N/C=C/C(=O)c2cccs2)ccc1F	-8.9	3.7	3.8	0.73	-7%	-2.0	i
O=C1N/C(=C/c2ccc(N3CCOCC3)cc2)C(=O)N1Cc1ccc(F)cc1	-12	-3.1	nt	0.65	8%	6.4	nt
CC1CCN(C(=S)NC(=O)c2ccco2)CC1	2.9	-0.3	-7.4	0.68	-4%	1.7	i
C#CCOc1c(Br)cc(/C=C2/C(=O)ON=C2C)cc1OCC	7.9	3.0	0.5	0.7	8%	-2.0	i
CC1(C)c2ccccc2N2CC(=O)NC21/C=C/c1ccco1 (stereo not drawn)	-4.2	9.6	-6.2	0.78	?	2.5	nt
Cc1ccc(S(=O)(=O)N2CCC(C(=O)NCCc3ccccn3)CC2)cc1	3.4	-1.3	-3.1	0.72	-5%	1.5	nt
CCCCN1CC(=O)N2[C@H]3c4cc(OC)ccc4OC[C@@H]3[C@H](C(=O)OCC)[C@]2(C)C1=O	3.8	-8.8	-5.5	nt	nt	nt	i
COc1ccc2[nH]c3c(NCCN4CCCCC4)ncnc3c2c1	-67	-1.7	nt	0.65	-1%	3.7	nt
COc1ccc(CN(C(=O)CN2C(=O)COc3ccccc32)C2CCCC2)c(OC)c1	5.8	2.8	nt	0.67	0%&7%	-1.1	nt
COCCNc1nc(NCc2cnc(C)cn2)c2sccc2n1	nt	3.5	-5.1	nt	nt	nt	i
O=c1c2ccccc2oc2nc(C3CCCCC3)n(Cc3ccco3)c(=O)c12	5.4	-1.4	nt	0.71	?	5.3	nt
CC(=O)Nc1cccc(Nc2cc(C)nn2C)c1	nt	0.9	-2.7	nt	nt	nt	i
CC(=O)Nc1cc(-c2ccccc2N(C)C)cn2c(-c3ccc(S(C)(=O)=O)cc3)cnc12	nt	-127	4.1	nt	nt	nt	i
Cc1cccc(C2=NN(c3ccc(Br)cc3)[C@@H](C(=O)N3CCOC3=O)[C@@H]2c2ccccc2)c1	i	-1.7	nt	0.73	-10%	nt	nt
CC1(C)CC2(CC(C)(C(=O)CSc3nc4ccccc4s3)OC2=O)C(=O)O1 (stereo not drawn)	-0.1	1.4	nt	0.73	-36%	7.1	nt
CCc1ccc(CN/C=C/C(=O)c2ccc(Br)cc2)cc1	3.2	-0.8	nt	0.72	21%	1.2	nt
O=C1CN2C(=Nc3ccc(Cl)cc3C2c2ccccc2)CN1 (stereo not drawn)	8.8	-1.5	nt	0.68	-5%	1.4	nt
CC(=O)Nc1ccccc1C(=O)C(=O)Nc1ccc(F)cc1	2.8	-4.2	nt	0.75	0%	-3.1	nt
Cc1cc(F)ccc1S(=O)(=O)Nc1ccccc1C(=O)NC1CCN(Cc2ccccc2)CC1	-57	-4.0	?	0.65	2%	nt	i
CCOC(=O)c1ccc(NC(=O)CN2C(=O)C(C)SC(C)C2=O)cc1 (stereo not drawn)	5.8	4.1	-1.1	0.73	7%	2.2	i
COc1ccccc1C1N(c2cc(Cl)ccc2OC)C(=O)C2CCCN21 (stereo not drawn)	1.0	18	0.6	0.7	-6%	-0.6	i
Cc1nnc(Nc2ccc(Cl)cc2)s1	3.1	-0.7	0.0	0.61	-3%	-1.9	i
CC(=O)NC(C)(c1ccccc1)c1nc(-c2ccc(N(C)C)cc2)cs1 (stereo not drawn)	nt	0.9	15	nt	nt	nt	i
CCCc1ccc(-c2cc(NC(=O)CSc3n[nH]c(N)n3)n(-c3ccccc3)n2)cc1	0.8	-0.6	nt	0.64	-8%	0.0	nt
Cc1cc(C)c(NC(=S)NCCCSC2CCCCC2)c(C)c1	2.5	-3.2	3.3	0.68	7%	5.7	i
CC(C(=O)NC1CCCCC1)N(Cc1ccccc1)C(=O)c1snc(C(N)=O)c1N (stereo not drawn)	-55	-2.2	1.9	0.66	nt	-1.0	i
N#Cc1ccc(CCc2ccccc2)[nH]c1=O	-36	-0.9	-1.1	0.65	4%	nt	i
O=C(COC(=O)c1cc(S(=O)(=O)N2CCOCC2)ccc1F)NC1CCCCC1	0.3	4.3	-1.9	0.66	nt	nt	i
(list continues)
SMILES	UCH37 DUB inh	HNF4A DNA FP	AF4-AF9 inh	E coli growth	Vif A3G	RanGTP-Imp inh	FGF22 binding
N#C/C(=C\c1cc([N+](=O)[O-])c(N2CCCCC2)cc1N1CCCCC1)c1nn(-c2ccccc2)c(N)c1C#N	5.9	-3.2	nt	0.8	5%	7.0	nt
NNC(=O)c1nc(-c2cccc(-n3cccc3)c2)no1	4.9	1.2	1.0	0.62	2%	-2.6	i
COCC1CCN(C(=O)c2cc(COc3ccc4c(c3)CCCC4)on2)C1 (stereo not drawn)	2.2	4.7	-0.1	0.67	nt	2.8	i
O=C(CN1C(=O)C2C3C=CC(C3)C2C1=O)Nc1ccc(C(=O)O)cc1 (stereo not drawn)	-0.3	-0.2	nt	0.66	-6%	0.7	nt
CCn1c(Oc2ccccc2C)nc2c1c(=O)n(C)c(=O)n2C	4.3	-3.1	5.3	0.65	-4%	-1.8	i
CC(CC(F)(F)F)N1CCC(n2nccc2NC(=O)CCCc2ccccc2)CC1 (stereo not drawn)	1.0	4.5	0.7	0.68	0%	57*	i
Cc1ccc(-n2c(SCC(=O)Nc3ccc4cn[nH]c4c3)nnc2-c2ccco2)cc1	-1.9	-1.7	nt	0.69	-2%&5%	-4.1	nt
C(=N\c1nccs1)/c1cccnc1	nt	2.5	nt	nt	14%	-5.5	nt
CCOC(=O)C1CCCN(C(=O)C2CC(=O)N(c3ccc(C)cc3)C2)C1 (stereo not drawn)	4.7	2.7	2.9	0.65	1%	1.7	i
COc1ccc(-n2cnnc2SCc2cnc(-c3ccccc3)s2)cc1	4.3	0.1	nt	0.7	-2%	-3.7	nt
O=S(=O)(c1ccccc1F)N1CCCc2ccccc21	3.3	-0.3	-4.0	0.68	1%	3.3	i
CC1(CCc2ccccc2)NC(=O)N(CC(=O)N2CCCCCC2)C1=O (stereo not drawn)	4.7	-1.8	1.8	0.72	-6%	-2.8	i
COc1ccc(NC(=O)C2CCCN(c3nc(C)cc(C)n3)C2)cc1 (stereo not drawn)	0.1	-0.8	-1.7	0.7	0%	1.0	i
CC1C(=O)NN=C1C(=O)N/N=C/c1cccs1 (stereo not drawn)	nt	-0.9	1.7	nt	-4%	-0.4	nt

2 records drawn at random from those above, as already listed:
SMILES	UCH37 DUB inh	HNF4A DNA FP	AF4-AF9 inh	E coli growth	Vif A3G	RanGTP-Imp inh	FGF22 binding
N#C/C(=C\c1cc([N+](=O)[O-])c(N2CCCCC2)cc1N1CCCCC1)c1nn(-c2ccccc2)c(N)c1C#N	5.9	-3.2	nt	0.8	5%	7.0	nt
NNC(=O)c1nc(-c2cccc(-n3cccc3)c2)no1	4.9	1.2	1.0	0.62	2%	-2.6	i

Marked active in RanGTP-Imp inh, among the entries above:
Molecule | UCH37 DUB inh | HNF4A DNA FP | AF4-AF9 inh | Vif A3G | RanGTP-Imp inh | FGF22 binding
COC(=O)c1ccc2nc(NC(=O)C(C)C)sc2c1 | 3.7 | 2.1 | -1.0 | 0% | 30* | nt
CC(CC(F)(F)F)N1CCC(n2nccc2NC(=O)CCCc2ccccc2)CC1 (stereo not drawn) | 1.0 | 4.5 | 0.7 | 0% | 57* | i

High-throughput results: PubChem BioAssay, several laboratories
